Assay outcomes from PubChem.
Tg IFNy HTS: T. gondii growth inhibition with IFN-gamma, primary screen, cell-based; hit rate 3.8% among 69,000; activity change, negative = inhibition, %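 (about 20 µM by stock and volumes)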; Toxoplasma gondii growth in IFN-gamma-treated host cells; stronger effect = lower value; reference of the scale not given here;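 active means below -70%; inconclusive means fit judged invalid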;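 further: host cells are HeLa cells infected with Toxoplasma gondii; parasite growth read as luciferase light; one replicate is shown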
The depositor's hits bear a star; i = inactive; ? = inconclusive; & = joins results of further samples. Only part of the results is shown; count on the stated rates, not on these rows.

SMILES	Tg IFNy HTS
C[C@@H]1CN([C@@H](C)CO)C(=O)CCCn2nncc2CO[C@@H]1CN(C)C(=O)Nc1cccc(Oc2ccccn2)c1	135
O=C(Cn1nnc2ccccc2c1=O)c1ccc(Cl)c(Cl)c1	151
Cn1c(SCC(=O)N2c3ccccc3Sc3ccccc32)nnc1-c1ccncc1	49
Cc1ccccc1-c1noc(-c2c(O)c3ccccc3[nH]c2=O)n1	65
c1ccc(-c2nc3nonc3c3nc4ccccc4n23)cc1	-7
O=c1[nH]c(N2CCOCC2)nc2c1CCN(Cc1ccccc1)CC2	-28
O=S(=O)(Cc1cc(Cl)sc1Cl)c1ccc(Cl)cc1	-101*
Cc1c(Cl)cccc1NC(=O)Cn1ncc2c(N3CCN(c4ccccc4)CC3)ncnc21	129
COCC(NC(=O)c1c(C)nc2cc(C)ccn12)c1ccnn1C (stereo not given)	-8
COc1ccc(C2c3[nH]c4ccccc4c3CCN2C(=O)c2ccc(N(C)C)cc2)cc1 (stereo not given)	58
Cc1c(C#N)c(NC(=O)c2cccs2)n(Cc2cccs2)c1C	13
CCN1C[C@@H](COC)[C@]2(CCN(C(=O)N3CCCC3)C2)C1	-42
Cc1onc(-c2ccccc2)c1NC(=O)NCc1csc(-c2cccs2)n1	7
Cn1c(-c2ccccc2)cnc1SCC(=O)Nc1ccc(Cl)cc1	7
CCO[C@@H]1CC[C@@H]2[C@H]1OCCN2C(=O)Cc1ccc2c(c1)OCO2	-5
O=C(CSc1ccccn1)NCCOc1ccccc1	9
CC(C)CN1CC2CN(C(=O)c3cscn3)CC2C1 (stereo not given)	479
CCc1cn[nH]c1C1CCCN(C(=O)c2cc(-c3c(C)nn(C)c3C)nn2C)C1 (stereo not given)	-12
CCCN=c1ssc(=O)n1CCC	31
CSCCC(NC(=O)c1c2c(nn1C)CCCC2)c1cc(=O)[nH]c(-c2cccnc2)n1 (stereo not given)	-20
Cn1c(-c2ccc(CN3CCn4cncc4C3)o2)nc2ccccc21	12
CC(Oc1ccccc1F)C(=O)N1CCN(C)CC1c1ccccc1 (stereo not given)	16
CSC1=NCCN1CC(=O)c1ccc(F)cc1	20
Cc1cnccc1C(=O)NCC1CCCN(Cc2ccccn2)C1 (stereo not given)	-49
CC1CCN=C(N)S1 (stereo not given)	11&15
CCOC(=O)C1CCN(C(=O)C2(NC(=O)Nc3c(C)cccc3C)CCCCC2)CC1	-13
CC(=O)N1CC2(CCN(C(=O)c3cnc4ccccc4n3)CC2)CC1C(=O)O (stereo not given)	5
CN(Cc1cccnc1)C1CCN(Cc2nccn2C)C(C(=O)O)C1 (stereo not given)	49
CC(C)[C@@H]1C[C@H](C(F)(F)F)n2nc(C(=O)N3CCCC(CN(C)C)C3)cc2N1 (stereo not given in full)	-2
Cc1noc(-c2ccc(N3CC[C@@H](c4ccc5c(c4)OCO5)[C@H](O)C3)nc2)n1	3
CC(=O)Nc1ccc(-c2csc(N(C)c3ccc(O)cc3)n2)cc1	53
CNC(=O)c1ccc(-c2ccc(OC)c3ncccc23)s1	-1
Fc1cccnc1O[C@H]1CO[C@@]2(CCCN(c3ncccn3)C2)C1	1
CN(C)[C@@H]1CCN(C(=O)c2ccc[nH]2)[C@H]1Cc1cccnc1	23
O=C(CC1COCCN1)N1CCC2(CCc3ccccc32)CC1 (stereo not given)	4
C[C@@H]1CN([C@H](C)CO)C(=O)c2cc(C#CC3(O)CCCC3)cnc2O[C@H]1CN(C)S(=O)(=O)c1cccc(F)c1	i
N#C[C@H]1[C@@H](c2ccc(C#CC3(O)CCCC3)cc2)[C@@H](CO)N1C(=O)C1CCCCC1	-2
O=C1NCC2(CCCN(C(=O)Cn3cc(C(F)(F)F)ccc3=O)CC2)O1 (stereo not given)	-5
COc1cc(OC)c(NC(=O)NCC(c2cccnc2)c2cn(C)c3ccccc23)cc1Cl (stereo not given)	i
COc1ccc2c(c1OC)CN(C)CCc1cc3c(cc1C(=O)C2)OCO3	-4
CNCCCCc1cnc(C)c2[nH]c3ccccc3c12	-95*
Cc1nc(C(Cc2c[nH]c3ccccc23)NS(=O)(=O)c2ccc(F)c(C)c2)cc(=O)[nH]1 (stereo not given)	23
COCCNC(=O)[C@@H]1C[C@@H]2CCN(Cc3cnn(C)c3)C[C@@H]2O1	-21
CC(=O)Nc1ccc(-c2nccn2CCc2c[nH]c3ccccc23)cc1	0
Cn1cc(C(=O)N2CCCC3(CCN(c4cccnc4)C3=O)C2)cn1 (stereo not given)	-4
COc1ccc(Br)cc1-c1nc(Cn2ccn3nc(-c4ccc(C)c(C)c4)cc3c2=O)c(C)o1	45
O=S(=O)(Oc1ccc(-c2cnc3ccccc3n2)cc1)c1ccc2ccccc2c1	-19
O=C(Nc1ccc(N2CCN(Cc3ccccc3)CC2)cc1)c1ncoc1-c1cccs1	178
CN(Cc1cccc(C(=O)Nc2nn(C)c3ccccc23)c1)Cc1cnccn1	-5
COc1ccccc1-c1cc2c(=O)n(Cc3nc(-c4cccc(OC)c4OC)oc3C)ccn2n1	-19
Other compounds.
SMILES	Tg IFNy HTS
COC(=O)C1CCN(C(=O)c2cc3cccnc3n(Cc3ccc(F)cc3)c2=O)CC1	0
CCNC(=O)c1ccc(-c2cc(NCCO)nc3[nH]ccc23)cc1	-1
C=CCOCc1n[nH]c2c1CN(C1CCOCC1)C2	2
COc1ccc(NC(=O)N2CCCCN3[C@H](CO)[C@@H](c4ccc(-c5ccccc5F)cc4)[C@H]3C2)cc1	-36
CCOC(=O)COc1ccc2c(=O)cc(-c3ccccc3)oc2c1	13&11
O=C1CC(C(=O)N(C2CCCC2)C(C(=O)NC2CCCC2)c2ccccn2)CS1 (stereo not given)	-38
CCOC(=O)c1cc(C)n(N(C)c2cc(C(F)(F)F)ccn2)c1C	84
C=CCN1CCN(C)C2(CCN(S(=O)(=O)C3CC3)CC2)C1=O	4
CC1(C)Cc2nc3oc4c(NCc5ccccc5)ncnc4c3cc2CO1	-63
c1coc(-c2nccn2-c2ccc(-c3ccn[nH]3)cc2)c1	19
CCOC(=O)c1nc(Nc2ccc(OC)c(Cl)c2)c2ccccc2n1	-77*
COc1ccc(-c2nc(C)c(CCNC(=O)c3ccc([N+](=O)[O-])cc3)s2)cc1OC	i
COc1ccc(CC(=O)Nc2ccc(-c3nc(-c4ccc(C)cc4)co3)cc2)cc1	30
Cc1ccc2oc(C(=O)N(C)Cc3nc(-c4ccncc4)no3)cc2c1	3
CCc1cc(CN(C)Cc2nc(-c3sccc3C)oc2C)on1	0
CSc1ccc(CN2CCN(CCC(C)C)C(CCO)C2)cc1 (stereo not given)	16
CCN1c2cc(C)ccc2-n2cccc2C12CCN(S(=O)(=O)c1c(C)noc1C)CC2	64
Cc1ccc(NC(=O)N2CCC3(CC2)Nc2ccccc2-n2cccc23)c(C)c1	342
CNc1ncc(C(=O)NCC(c2ccc(Cl)cc2)N2CCOCC2)cn1 (stereo not given)	-1
CC(C)Nc1ncnc2c1CCN(C(=O)[C@H]1CCCO1)CC2	1
CC(C)C[C@H](NC(=O)[C@@H](O)[C@H](N)Cc1ccccc1)C(=O)O	10&-1
O=C(NC1CC1)c1cc2n(n1)CCN(C(=O)CCn1nnc3ccccc31)C2	-46
Cc1ccc(NC(=O)C(=O)N(C)Cc2snnc2C)c(C)c1	-1
CN1CC[C@H]2OC[C@H](C(=O)NCCc3cccs3)C[C@H]2C1	64
CCCOCC1CCN(C(=O)c2cccc(CC3CCNCC3)c2)C1 (stereo not given)	5
CNC(=O)N1CCC2(COCc3c(C)nc(-c4ccccc4)nc32)C1 (stereo not given)	-5
Cc1oc(-c2cccc(Cl)c2)nc1CN1CCSCC1	11
Cc1ccc(-c2nc(CCNC(=O)c3ccc(C)c(C)c3)cs2)cc1	i
Cc1ccc(NC(=O)N2CCC3(CC2)Nc2cc(C)ccc2-n2cccc23)cc1	i
Cc1ccc(-c2cncnc2NC(=O)c2ccccc2)cc1	-9
CCOC(=O)Cc1ccc(NC(=O)N2CCC3(CC2)c2cccn2-c2ccc(C)cc2N3CC)cc1	-35
CC(=O)N[C@@H]1C[C@H](CC(C)C)O[C@H](c2ccc(Oc3ncccn3)cc2)C1	34
CC(C)c1ccc(-n2cc(CN3C[C@H](O)[C@@H](N4CCN(C)CC4)C3)cn2)cc1	0
O=C(c1cccs1)N1CCc2c([nH]c3ccccc23)C1c1ccc(Cl)cc1 (stereo not given)	-40
COCCN1CCC2(CC1)CC(NCc1ccc(C)s1)c1ccccc12 (stereo not given)	-4
Cc1cc(NC(=O)CC2CCCCC2)n(-c2ncnc3c2cnn3-c2cccc(Cl)c2)n1	9
CCN(CC)CCn1cc(-c2cccc(O)c2)nn1	0
COc1ccc(CN2CC3(CCN(C(=O)Cc4ccncc4)CC3)c3c([nH]c4cc(OC)ccc34)[C@@H]2CO)cc1	-12
CCn1c(C2CCCN(Cc3coc(-c4ccccc4)n3)C2)nn(C)c1=O (stereo not given)	-3
Cc1cccc(NC(=O)C(=O)NCCc2sc(-c3ccccc3)nc2C)c1C	?
Cc1nonc1OCCNC(=O)c1cccc2ccnn12	12
CCN(CC)c1ncnc2c1cnn2CC(=O)Nc1cccc(C)c1C	-3
CCC(=O)N(Cc1ccc(Cl)cc1)C(C)CC (stereo not given)	3
O=C(O)COCC(=O)Nc1ccccn1	7
CCOc1ncccc1C(=O)N(Cc1nccn1C)C1CC1	56
CCc1nc(C)ccc1OCC(=O)N1C[C@@H]2[C@@H]3CC[C@@H](C3)[C@@H]2C1	-6
CCOC(=O)C1NC(=O)CC1c1ccccc1 (stereo not given)	2
Cc1onc(-c2ccccc2)c1C(=O)N1CCC(O)(CN(C)C)C1 (stereo not given)	-6
COCCn1c(SCC(=O)N2CCCCC2C)nnc1-c1cc2ccccc2cc1O (stereo not given)	9
COc1cc(O)c2c(=O)c(OC)c(-c3ccc(OC)c(OC)c3)oc2c1	19

Taken from above.
CNc1ncc(C(=O)NCC(c2ccc(Cl)cc2)N2CCOCC2)cn1 (stereo not given) in Tg IFNy HTS = -1
CCNC(=O)c1ccc(-c2cc(NCCO)nc3[nH]ccc23)cc1 in Tg IFNy HTS = -1
CCOC(=O)c1nc(Nc2ccc(OC)c(Cl)c2)c2ccccc2n1 in Tg IFNy HTS = -77*

Further structures follow.
SMILES	Tg IFNy HTS
Cc1c(C(=O)O)sc2nc(-c3ccccc3)cn12	87
CCc1ccc2c(-c3cccc(Cl)c3)nc(=O)n(CC)c2n1	20&13
Cc1cc(C)c(-n2c(SCc3nc4ccccc4s3)n[nH]c2=O)c(C)c1	-59
CO[C@@H]1CN(C)C(=O)c2cc(NC(C)=O)ccc2OC[C@@H](C)N(C(=O)Cc2ccccn2)C[C@H]1C	69
CCC(C)(C)C1CCc2sc3ncnc(N=Nc4c(O)[nH]c5ccccc45)c3c2C1 (stereo not given)	11
CC1=C(C(=O)N(Cc2ccsc2)C2CC2)C(c2nc[nH]c2C)NC(=O)N1 (stereo not given)	-18
CCCN1C(=O)CCc2cc(NC(=O)c3ccc(CC)cc3)ccc21	-59
CC(=O)Nc1ccc(C(=O)N(C2CCCC2)C2(C(=O)NCc3ccccc3)CCN(C(C)=O)CC2)cc1	139
Cc1nn(C)c2nc(NNC(=O)Nc3cc(Cl)nc(Cl)c3)cc(C(C)C)c12	-57
CN1CCC[C@@H]1Cc1c[nH]c2ccc(CCS(=O)(=O)c3ccccc3)cc12	20
Cc1nn(-c2ccccc2)c(C)c1CC(=O)N(C)C(C)Cc1ccccn1 (stereo not given)	1
Cc1cccnc1CN1CCN(Cc2nn(C)c3cccc(Cl)c23)CC1	-14
Cn1ccc2ccc(CN3CCN(c4ncnc5ccccc45)CC3)cc21	-49
CCNC(=O)Cc1ccc(-c2cc(C)ccc2OC)cc1	52
C[C@@H]1CN([C@@H](C)CO)C(=O)c2cc(Br)cnc2O[C@@H]1CN(C)Cc1ccc(Oc2ccccc2)cc1	-51
NC(=O)[C@H]1CCCN1C(=O)c1ccc(OCC(=O)N2CCCCC2)cc1	3
O=S(=O)(C1CC1)N1CC[C@H]2[C@H]1CCN2c1ncccn1	-5
CN1CCN(CC#N)C(=O)C12CCN(C(=O)c1cnccn1)CC2	-12
CC(C)c1ccc(S(=O)(=O)N2CCC3(CC2)NCCN=C3NCc2ccc(Cl)cc2)cc1	-55
CC1CCCN(C(=O)CCn2c(C(F)F)cc3cccnc32)C1 (stereo not given)	-56
Cc1ccc(-c2nc(CCNC(=O)C(=O)Nc3ccccc3C#N)cs2)cc1	68
COCCNC(=O)c1cc2c(c(-c3cccc(C4=CCCCC4)c3)n1)[C@@H](CCO)N([S@](=O)C(C)(C)C)C2	-37
COc1ccc2c(c1)c(CC(C)NC(=O)c1cc(C)nc3onc(C)c13)cn2C (stereo not given)	13
COc1ccccc1S(=O)(=O)N(C)C[C@@H]1OCc2cn(nn2)CCCC(=O)N([C@@H](C)CO)C[C@H]1C	242

Grouped by structure, the entries above with an aryl methoxy group.
SMILES	Tg IFNy HTS
COc1ccc(C2c3[nH]c4ccccc4c3CCN2C(=O)c2ccc(N(C)C)cc2)cc1 (stereo not given)	58
CNC(=O)c1ccc(-c2ccc(OC)c3ncccc23)s1	-1
COc1cc(OC)c(NC(=O)NCC(c2cccnc2)c2cn(C)c3ccccc23)cc1Cl (stereo not given)	i
COc1ccc2c(c1OC)CN(C)CCc1cc3c(cc1C(=O)C2)OCO3	-4
COc1ccc(Br)cc1-c1nc(Cn2ccn3nc(-c4ccc(C)c(C)c4)cc3c2=O)c(C)o1	45
COc1ccccc1-c1cc2c(=O)n(Cc3nc(-c4cccc(OC)c4OC)oc3C)ccn2n1	-19
COc1ccc(NC(=O)N2CCCCN3[C@H](CO)[C@@H](c4ccc(-c5ccccc5F)cc4)[C@H]3C2)cc1	-36
CCOC(=O)c1nc(Nc2ccc(OC)c(Cl)c2)c2ccccc2n1	-77*
COc1ccc(-c2nc(C)c(CCNC(=O)c3ccc([N+](=O)[O-])cc3)s2)cc1OC	i
COc1ccc(CC(=O)Nc2ccc(-c3nc(-c4ccc(C)cc4)co3)cc2)cc1	30
COc1ccc(CN2CC3(CCN(C(=O)Cc4ccncc4)CC3)c3c([nH]c4cc(OC)ccc34)[C@@H]2CO)cc1	-12
COc1cc(O)c2c(=O)c(OC)c(-c3ccc(OC)c(OC)c3)oc2c1	19
CCNC(=O)Cc1ccc(-c2cc(C)ccc2OC)cc1	52
COc1ccc2c(c1)c(CC(C)NC(=O)c1cc(C)nc3onc(C)c13)cn2C (stereo not given)	13
COc1ccccc1S(=O)(=O)N(C)C[C@@H]1OCc2cn(nn2)CCCC(=O)N([C@@H](C)CO)C[C@H]1C	242
